Screening data as filed in PubChem BioAssay.
Mtb MbtI inh – MbtI salicylate synthase inhibitors, primary screen, biochemical, fluorescence intensity | P9WFX0 | purified MbtI enzyme, fluorescence intensity read-out | inhibition, %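 (about 17 µg/mL by stock and volumes)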 | 100,000 tested, 0.89% active | AID 493033, 2011;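 active = above 50% in both replicates, above 80% if mildly self-fluorescent; inactive = the rest, strongly fluorescent compounds included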;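 note: 0% = mean of negative and 100% = mean of positive controls; one replicate is shown; some compounds called inactive have numbers as strong as hits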
Target sequence (P9WFX0 whole entry, looked up): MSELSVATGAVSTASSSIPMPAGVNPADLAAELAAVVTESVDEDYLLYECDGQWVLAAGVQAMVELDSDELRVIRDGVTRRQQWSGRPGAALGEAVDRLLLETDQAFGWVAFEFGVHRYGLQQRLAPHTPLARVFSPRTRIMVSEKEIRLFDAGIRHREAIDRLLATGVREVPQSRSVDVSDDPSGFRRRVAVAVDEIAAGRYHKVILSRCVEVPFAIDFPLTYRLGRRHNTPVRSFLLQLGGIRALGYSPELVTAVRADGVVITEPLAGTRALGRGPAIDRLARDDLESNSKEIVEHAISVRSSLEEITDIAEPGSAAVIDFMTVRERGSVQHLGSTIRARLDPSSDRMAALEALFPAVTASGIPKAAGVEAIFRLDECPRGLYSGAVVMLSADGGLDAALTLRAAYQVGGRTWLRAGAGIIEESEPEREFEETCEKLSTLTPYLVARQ
MenB inh – M. tuberculosis MenB inhibitors, primary screen, biochemical, absorbance | inhibition, %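 (about 12 µg/mL by stock and volumes)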 | 100,000 tested, 0.43% active | MenB enzyme assay, absorbance read-out; some hits fall short of the stated cut | 1,4-dihydroxy-2-naphthoyl-CoA synthase (Mycobacterium tuberculosis (strain ATCC 25618 / …;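 active = mean of two replicates above 30%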;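 note: 0% = no compound and 100% = wells with inactive enzyme; the first replicate is given; strong numbers were not always called active; inactives centre near -10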
PV pol inh – poliovirus RdRp elongation inhibitors, primary screen, biochemical, fluorescence polarization, total intensity; poliovirus polymerase elongation; hits give low values; % elongation, % (compound at 16.7 µg/mL); Genome polyprotein (Poliovirus type 1 (strain Mahoney)), P03300; AID 588519, 2011; 150,000 tested, 0.66% active; in the data active = % elongation below about 90%; note: some results filed as inactive read as strong as hits
Target sequence (P03300 1749-2209 limits assumed): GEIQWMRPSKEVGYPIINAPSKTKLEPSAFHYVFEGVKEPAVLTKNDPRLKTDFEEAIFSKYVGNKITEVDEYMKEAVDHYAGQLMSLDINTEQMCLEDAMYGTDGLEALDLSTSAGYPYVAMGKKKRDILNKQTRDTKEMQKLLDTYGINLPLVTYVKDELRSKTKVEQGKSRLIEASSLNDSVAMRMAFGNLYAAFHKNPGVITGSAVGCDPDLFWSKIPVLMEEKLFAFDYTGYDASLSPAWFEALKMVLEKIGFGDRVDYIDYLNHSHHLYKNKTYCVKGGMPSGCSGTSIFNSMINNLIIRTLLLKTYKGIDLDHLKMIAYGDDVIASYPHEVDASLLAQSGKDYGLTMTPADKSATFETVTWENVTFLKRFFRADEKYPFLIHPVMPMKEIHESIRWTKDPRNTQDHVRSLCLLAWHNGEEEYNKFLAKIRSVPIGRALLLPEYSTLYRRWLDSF
PV pol inh intensity – recorded beside PV pol inh, whose call it bears; % elongation; measured here: total intensity read-out; formula for this scale not given here;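 total fluorescence in place of polarization; lower means less elongation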
* = called active by the depositor; / = no result given; & = joins results of further samples. Rows were taken by chance; 1.9% or so of the library scored in one or more.

SMILES	Mtb MbtI inh	MenB inh	PV pol inh	PV pol inh intensity
COc1ccc(NCC(=O)N/N=C/C2CCCCC2)cc1	-9	1	100	103
Cc1cc(NC(=O)C2CC(=O)N(C(C)(C)C)C2)no1 (stereo not given)	-3	19	101	107
COc1ccccc1N(C)S(=O)(=O)c1ccc(C(=O)NC(C)(C)C)cc1	-2	-16	102	102
CN(C)CCSc1nc2ccccc2c(=O)n1-c1ccccc1	/	-3	107	107
Cc1c(N=Nc2ccc(O)cc2)c(=O)n(-c2ccccc2)n1C	-7	-42	101	109
CCOc1ccc(-c2csc(NC(=O)Cc3ccccc3)n2)cc1	-4	/	102	101
Cn1c(=O)cc(OCC(=O)NC2CCCCC2)c2ccccc21	7	-23	99	103
COc1ccc(C2CC(c3ccccc3)=NN2C(=O)COc2ccc(-n3cnnn3)cc2)cc1 (stereo not given)	-5	-42	106	108
Cc1ccccc1NC1=NCCS1	-10	/	102	108
CCn1c(CCl)nc2cc(C(=O)O)ccc21	-3	/	81	112
COc1ccc(OCC(=O)N2CCC(Cc3ccccc3)CC2)cc1	-9	/	102	100
Cc1cc(C)c(C(=O)NCc2ccco2)c(C)c1C(=O)NCc1ccco1	-16	/	104	105
COc1ccc(-c2nnc(SCC(=O)N3CC(C)OC(C)C3)n2C2CCCCC2)cc1OC (stereo not given)	2	-28	105	108
CN(c1c[nH]c(=O)[nH]c1=O)C1CCCCC1	/	-5	105	105
CCn1nc(N)c2c(O)[nH]c(=O)cc21	18	-54	40*	45*
Nc1ccc2nc(CCCO)[nH]c2c1	59	28	54*	52*
COc1ccc(Cl)cc1-c1nnc(SCC(=O)NC2CC3CCC2C3)o1 (stereo not given)	14	-18	100	101
CN(C)S(=O)(=O)c1cccc(C(=O)NC2=NCCS2)c1	4	-8	107	109
COc1ccc(CC(=O)n2nc(C)cc2C)cc1	6	-8	100	101
Cc1cc(C)cc(NC(=O)Nc2ccccc2)c1	-8	-54	99	99

An excerpt of these results, bar-delimited:
molecule | Mtb MbtI inh | MenB inh | PV pol inh | PV pol inh intensity
COc1ccc(Cl)cc1-c1nnc(SCC(=O)NC2CC3CCC2C3)o1 (stereo not given) | 14 | -18 | 100 | 101
CCn1nc(N)c2c(O)[nH]c(=O)cc21 | 18 | -54 | 40* | 45*
COc1ccc(CC(=O)n2nc(C)cc2C)cc1 | 6 | -8 | 100 | 101
Cc1c(N=Nc2ccc(O)cc2)c(=O)n(-c2ccccc2)n1C | -7 | -42 | 101 | 109
CN(C)S(=O)(=O)c1cccc(C(=O)NC2=NCCS2)c1 | 4 | -8 | 107 | 109

Quoted from above (six entries):
SMILES	Mtb MbtI inh	MenB inh	PV pol inh	PV pol inh intensity
CCOc1ccc(-c2csc(NC(=O)Cc3ccccc3)n2)cc1	-4	/	102	101
Cn1c(=O)cc(OCC(=O)NC2CCCCC2)c2ccccc21	7	-23	99	103
COc1ccc(C2CC(c3ccccc3)=NN2C(=O)COc2ccc(-n3cnnn3)cc2)cc1 (stereo not given)	-5	-42	106	108
Cc1ccccc1NC1=NCCS1	-10	/	102	108
CCn1c(CCl)nc2cc(C(=O)O)ccc21	-3	/	81	112
COc1ccc(OCC(=O)N2CCC(Cc3ccccc3)CC2)cc1	-9	/	102	100

(further entries)
SMILES	Mtb MbtI inh	MenB inh	PV pol inh	PV pol inh intensity
Cc1cc(=O)[nH]c(NCCO)n1	-13&-11	7	103	102
CSc1sc(C)cc1/C=N/O	/	16	106	104
CCC(NS(=O)(=O)c1cc(C)ccc1OC)C12CC3CC(CC(C3)C1)C2 (stereo not given)	/	1	105	109
COc1nccc(N)n1	-6	/	102	100
CC1C(c2ccc(Cl)cc2)=[N+]([O-])C(C)(C)N1O (stereo not given)	22	6	100	101
c1ccc(-c2csc3nc4ccccc4n23)cc1	-8	-5	104	108
c1ccc2c(N3CCCCC3)nc(N3CCCC3)nc2c1	-6	17	97	103
O=S(=O)(NCCc1nc(-c2ccc(Cl)cc2)no1)c1ccc(F)cc1	-10	-12	100	101
CC1=NC2N(C(=S)NC(=O)c3ccco3)N=C(NC(=O)c3ccco3)N2C(OC(=O)c2ccco2)=C1 (stereo not given)	15	-1	97	102
CCN1CCCC1CNC(=O)c1ccc2c(c1)N(Cc1cccc(Cl)c1)C(=O)c1ccccc1S2=O (stereo not given)	15	-23	100	98
COc1ccc(NC(=O)C2C3C=CC4(O3)C2C(=O)N(Cc2cccnc2)C4C(=O)NC2CCCCC2)cc1 (stereo not given)	-10	-11	104	103
COc1ccc(OC)c(-c2noc(NCCc3ccc(Cl)cc3)n2)c1	2	-28	101	96
CN(C(=O)CSc1nc(-c2ccco2)cc(C(F)(F)F)n1)c1ccccc1	-5	-26	103	103
O=C(NC(CC(=O)N1CCN(C(=O)c2ccco2)CC1)c1ccccc1)c1ccccc1Cl (stereo not given)	5	2	103	98
COc1ccccc1NS(=O)(=O)c1ccc2oc(SCC(=O)c3ccc4c(c3)NC(=O)CO4)nc2c1	23	13	99	105
CC(=O)Oc1cccc(C(=O)N(C(C)C)C(C)C)c1	-5	4	103	106
CSc1nsc(SCC(=O)c2ccccc2)n1	-1	-32	103	104
CC(=O)OC(C(=O)c1ccccc1)c1ccccc1 (stereo not given)	/	-12	103	105
O=C1Nc2cc(C(=O)NC3CC3)ccc2S/C1=C\c1ccccc1	-9	-14	100	107
C=CCn1c(COc2ccc(F)cc2)nnc1SCC(=O)c1ccc[nH]1	0	2	100	105

Some of the entries so far, bar-delimited:
Molecule | Mtb MbtI inh | MenB inh | PV pol inh | PV pol inh intensity
O=C1Nc2cc(C(=O)NC3CC3)ccc2S/C1=C\c1ccccc1 | -9 | -14 | 100 | 107
COc1ccc(Cl)cc1-c1nnc(SCC(=O)NC2CC3CCC2C3)o1 (stereo not given) | 14 | -18 | 100 | 101
Cc1cc(C)c(C(=O)NCc2ccco2)c(C)c1C(=O)NCc1ccco1 | -16 | / | 104 | 105
CC(=O)OC(C(=O)c1ccccc1)c1ccccc1 (stereo not given) | / | -12 | 103 | 105
CC(=O)Oc1cccc(C(=O)N(C(C)C)C(C)C)c1 | -5 | 4 | 103 | 106
c1ccc2c(N3CCCCC3)nc(N3CCCC3)nc2c1 | -6 | 17 | 97 | 103

Profiles from above. Order of screens: Mtb MbtI inh, MenB inh, PV pol inh, PV pol inh intensity
Record of CC(=O)OC(C(=O)c1ccccc1)c1ccccc1 (stereo not given) = /, -12, 103, 105
Record of CCC(NS(=O)(=O)c1cc(C)ccc1OC)C12CC3CC(CC(C3)C1)C2 (stereo not given) = /, 1, 105, 109
Record of O=S(=O)(NCCc1nc(-c2ccc(Cl)cc2)no1)c1ccc(F)cc1 = -10, -12, 100, 101

Continuation:
SMILES	Mtb MbtI inh	MenB inh	PV pol inh	PV pol inh intensity
CC1C(=O)ON(c2ccccc2)C(=O)N1C (stereo not given)	-129	8	101	103
O=C(c1cccc(-c2nnc(-c3ccccc3)o2)c1)N1CCCCC1	-19	-90	103	102
CSc1ccc(C=C(C#N)C#N)s1	9	-90	95	95
CN(C)CCNC(=O)Nc1ccc(F)cc1F	-3	-40	100	100
C=CCNc1nc(C(=O)OCC2COc3ccccc3O2)cs1 (stereo not given)	2	-4	99	102
CCOC(=O)c1cc(-c2ccc(OC)c(S(=O)(=O)N(C)Cc3ccccc3)c2)on1	-16	-5	102	102
COc1cccc(-c2nc(CC(=O)OCC(=O)NC3CCS(=O)(=O)C3)cs2)c1 (stereo not given)	52	-7	102	102
CC1C(c2ccccc2)=NOC(C)(C(=O)c2ccccc2)N1O (stereo not given)	-9	-6	101	107
Cc1ccc(S(=O)(=O)N(Cc2ccccc2)Cc2ccco2)cc1	23	-19	103	102
CCn1c(CN2CCCCCC2=O)nnc1SC(C)c1nc2ccccc2c(=O)[nH]1 (stereo not given)	-10	-16	104	101
CCCNc1nc2ccccc2s1	-16	-3	102	102
O=c1c(Br)cccc(Br)c1O	39	-169	105	101
Cc1cc(N2CCCC2=O)c(N)cc1N	-5	-20	103	102
Cc1cc(C)nc(Nc2ccc(O)cc2)n1	-1	-9	101	103
O=C(CCCN1CCC(n2c(=O)[nH]c3ccccc32)CC1)c1ccc(F)cc1	/	-6	98	101
O=C(NCCCN1CCN(c2ccccc2F)CC1)c1ccc(CS(=O)(=O)c2ccc(Br)cc2)o1	8	-8	99	101
CC1=C(C(=O)N2CCCCC2)C(c2ccc(Br)cc2)n2c(nc3ccccc32)N1 (stereo not given)	-9	-12	104	105
Cc1ccc(NC(=O)c2snc3ccc(Cl)cc23)cc1C	2	/	99	96
CC(c1ccco1)N(C(=O)C12CC3CC(CC(C3)C1)C2)c1ccccn1 (stereo not given)	1	-5	104	98
C=CCc1cc2c(C)cc(=O)oc2c(I)c1O	-1	-13	100	104
CC1(C)CC(=O)C(N=Nc2cccc(F)c2C#N)=C(O)C1	-2	1	102	99
COc1cnn(C2CCCCC2)c(=O)c1Cl	-1	4	98	101
CC(C)NC(=O)CSc1nc2ccccc2n1CC(=O)N1CCOCC1	-4	3	101	104
O=C(COC(=O)c1ccc(Br)o1)NCC1CCCCC1	-4	/	101	97
O=C1c2ccc(-c3ccc4c(c3)C(=O)N(CCO)C4=O)cc2C(=O)N1CCO	61	-37	101	103
O=C(CO)N/N=C\c1c(F)cccc1Cl	-8	17	102	106
Cc1nn(-c2ccccc2)c(C)c1CN(C)CC(=O)NC1CCS(=O)(=O)C1 (stereo not given)	-3	0	104	108
C=CCN1C(=O)C(CC(=O)NCC)SC1=Nc1ccc(S(N)(=O)=O)cc1 (stereo not given)	-5	-13	105	103
CC1CC(=O)c2cc(Cl)ccc2S1 (stereo not given)	54	0	104	105
CCOC(=O)C1=C(CC)Nc2ccccc2N=C1NC(=O)CCNC(C)=O	8	0	105	100
CC12CCC(=O)N1C(C(=O)O)CS2 (stereo not given)	-4	0	101	106
CNc1nc(-c2ccccc2)cc(-c2ccccc2)n1	/	-20	111	109
COc1cc2ccccc2cc1C(=O)Nc1ccc2c(c1)OCCO2	-3	-9	103	107
CCOc1cc(N(CC)CC)ccc1C=C1C(=O)NC(=S)NC1=O	12	12	98	105
Cc1ccc(CNc2nc3c(c(=O)[nH]c(=O)n3C)n2Cc2ccccc2C)cc1	/	-30	110	98
COc1ccc(S(=O)(=O)N2CCCCCC2)cc1C(=O)NC1CCCCC1	-7	-8	104	107
O=C1CC(c2ccccc2)CC(O)=C1C=NCc1ccccc1 (stereo not given)	-10	/	102	107
C=CCN1C(=O)NC(=O)/C(=C/C=C/c2ccccc2)C1=O	1	-36	100	100
Cc1ccc(C)c(NC(=O)CSc2ncnc3sc(C)c(C)c23)c1	/	-6	104	107
CCOC(=O)C1C2NC(=S)NC1(C)Oc1ccccc12 (stereo not given)	-3	-11	101	104
O=c1[nH]c(=O)n(S(=O)(=O)c2ccc(F)cc2)cc1F	-34	-70	94	92
O=C(COc1ccc(S(=O)(=O)NC2CCCCC2)cc1Cl)NCc1ccccn1	-7	-67	100	100
Cc1nonc1NC(=O)c1cccs1	/	-2	107	103
CCCN1C(=O)C(C#N)=C(C)/C(=C\c2ccc(-c3ccc(Br)cc3)o2)C1=O	6	2	102	101
Cc1[nH]c2ccccc2c1C(=O)CC#N	6	/	101	105
CCCCNc1ncnc2c1nnn2Cc1ccccc1Cl	-7	-2	105	107
Cc1noc(C)c1CC(C#N)(Cc1c(C)noc1C)C(=O)Nc1ccccc1	-20	-28	101	95
O=C(O)c1ccccc1C(=O)NC1CCN(c2nccc(C(F)(F)F)n2)CC1	1	10	107	97
O=C(OCC(=O)N1CCN(S(=O)(=O)c2ccc3ccccc3c2)CC1)c1n[nH]c2ccccc12	-2	-28	106	104
CCc1ccc(NC(=O)COC(=O)CC2(CC(=O)N3CCOCC3)CCCCC2)cc1	1	-10	103	108
Cc1cc2oc(=O)cc(-c3cc4ccccc4o3)c2cc1OCC#N	-3	-29	98	102
Cc1noc(C)c1CSc1ccccc1C(=O)OCC(=O)NC1(C#N)CCCCC1	-1	-27	100	105
O=S(=O)(c1ccc(Oc2ccc(S(=O)(=O)N3CCOCC3)cc2)cc1)N1CCOCC1	4	5	102	100
